DUX4 inh: DUX4-mediated transcription inhibition; 293T-iDUX4 ZSCAN4-Gaussia luciferase reporter, 24 h; hits give low values; activity change, negative = inhibition, % (test concentration not listed); 37,000 tested, 0.8% active;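 active = -10% or lower and over 25 points stronger than a control reporter; inconclusive = -10% or lower with a smaller gap; inactive = above -10%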;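 note: 0% = median of neutral control wells and -100% = median of positive control wells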
DUX4 inh difference: also measured in DUX4 inh; calls as there; Gaussia minus Italica difference, %; measured here: selective DUX4 reporter inhibition;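 worked out from the two reporters; negative = selective loss of the DUX4 reporter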
DUX4 inh control: second read-out of DUX4 inh, no call of its own (marks repeat the call); activity change, negative = inhibition, %; measured here: Italica tet-on control reporter;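 0 = neutral control and -100 = positive control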
An asterisk follows results filed as active; u = inconclusive; x = not tested or not shown; & = joins results of further samples. Not all compounds are listed (hit frequency here may not be typical).

SMILES | DUX4 inh | DUX4 inh difference | DUX4 inh control
CNC[C@H]1Oc2ccc(NS(=O)(=O)c3ccc(OC)cc3)cc2C(=O)N([C@H](C)CO)C[C@@H]1C | -3 | -2 | -1.5
O=C(c1cccnc1)N1CC[C@@H]2[C@@H](CO)Nc3ccc(-c4ccc(F)cc4)cc3[C@@H]21 | -2 | 15 | -17
C[C@H]1CN([C@@H](C)CO)C(=O)Cc2cc(NC(=O)Cn3cnnn3)ccc2O[C@@H]1CN(C)C(=O)Nc1ccc(C(F)(F)F)cc1 | 4 | 2 | 1.2
Cc1noc(C)c1NC(=O)Nc1ccc2c(c1)C(=O)N([C@H](C)CO)C[C@@H](C)[C@H](CN(C)C(=O)Nc1cccc3ccccc13)O2 | -1 | -4 | 2.5
COc1ccc(NC(=O)N(C)C[C@@H]2OCc3cnnn3CCCC(=O)N([C@H](C)CO)C[C@H]2C)cc1 | 1 | 0 | 0.7
O=C1CCCCn2cc(nn2)COC[C@H](Cc2ccccc2)N1 | -6 | -2 | -3.7
CN(C)C(=O)[C@@H]1[C@@H](CO)[C@@H]2Cn3c(ccc(C4=CCCCC4)c3=O)[C@H]1N2Cc1ccncc1 | 9 | 6 | 2.7
CC=Cc1ccc2n(c1=O)C[C@H]1[C@H](CO)[C@@H](C(=O)N3CCN(C)CC3)N(Cc3ccccc3F)[C@@H]21 (mixture of isomers) | 0 | 3 | -2.9
N#C[C@@H]1[C@@H](c2ccccc2-c2ccc(F)cc2)[C@H](CO)N1C(=O)Cc1cccnc1 | 14 | 15 | -1.4
CCC(=O)N1[C@@H]2c3cccc(=O)n3C[C@@H]2[C@@H](CO)[C@@H]1C(=O)N[C@H](C)c1ccccc1 | -3 | -9 | 5.8
O=S(=O)(c1ccccc1)N1CCCCN2[C@@H](CO)[C@H](c3ccc(-c4ccccc4F)cc3)[C@@H]2C1 | u | x | x
N#C[C@@H]1N[C@H](CO)[C@@H]1c1ccc(-c2cccc(F)c2)cc1 | 7 | 3 | 3.9
COC(=O)C[C@H]1CC[C@H]2[C@H](COc3ccc(NS(=O)(=O)c4ccc(C)cc4)cc3C(=O)N2C)O1 | 1 | 2 | -0.3
COc1ccc(S(=O)(=O)Nc2ccc3c(c2)CC(=O)N([C@@H](C)CO)C[C@H](C)[C@@H](CN(C)CC2CC2)O3)cc1 | 4 | 7 | -3.5
C[C@H](NC(=O)[C@@H]1[C@@H](CO)[C@@H]2Cn3c(ccc(C4=CCCC4)c3=O)[C@H]1N2C(=O)C1CC1)c1ccccc1 | 2 | 4 | -1.9
CNC[C@@H]1OCCCC[C@@H](C)Oc2ccc(N)cc2C(=O)N([C@@H](C)CO)C[C@H]1C | -1 | -1 | 0.1
C[C@@H](NC(=O)C[C@@H]1C[C@@H]2c3cc(NS(C)(=O)=O)ccc3O[C@@H]2[C@@H](CO)O1)c1ccccc1 | 7 | 6 | 0.6
CCN1[C@@H]2c3ccc(-c4ccncc4)c(=O)n3C[C@H]1[C@H](CO)[C@H]2C(=O)Nc1ccccc1 | 2 | 1 | 1.0
COc1ccc2c3c(n(C)c2c1)[C@@H](CO)N(C(=O)C1CCCCC1)CC31CCN(C(=O)Nc2cccc(F)c2)CC1 | u | x | x
COc1cccc(-c2ccc([C@H]3[C@H]4CN(S(=O)(=O)c5cn(C)cn5)CCCCN4[C@H]3CO)cc2)c1 | 9 | 7 | 1.9
OC[C@@H]1[C@@H](c2ccc(C#Cc3ccccc3)cc2)[C@@H]2CN(Cc3cncnc3)CCCCN12 | -4 | 0 | -4.7
CCC(=O)N(C)C[C@H]1[C@@H](c2ccc(-c3cccc(F)c3)cc2)[C@@H](CO)N1C(C)=O | -8 | -4 | -3.4
CC(C)NC(=O)Nc1ccc2c(c1)C(=O)N([C@H](C)CO)C[C@H](C)[C@@H](CN(C)S(=O)(=O)c1ccc(F)cc1)OCCCC[C@@H](C)O2 | 5 | 3 | 2.4
CN1[C@@H]2c3ccc(-c4ccc(F)cc4)c(=O)n3C[C@H]1[C@H](CO)[C@H]2C(=O)Nc1nccs1 | -3 | 1 | -4.6

Some of the entries so far, with the structure last.
DUX4 inh	DUX4 inh difference	DUX4 inh control	molecule
-1	-4	2.5	Cc1noc(C)c1NC(=O)Nc1ccc2c(c1)C(=O)N([C@H](C)CO)C[C@@H](C)[C@H](CN(C)C(=O)Nc1cccc3ccccc13)O2
1	0	0.7	COc1ccc(NC(=O)N(C)C[C@@H]2OCc3cnnn3CCCC(=O)N([C@H](C)CO)C[C@H]2C)cc1
-6	-2	-3.7	O=C1CCCCn2cc(nn2)COC[C@H](Cc2ccccc2)N1
9	6	2.7	CN(C)C(=O)[C@@H]1[C@@H](CO)[C@@H]2Cn3c(ccc(C4=CCCCC4)c3=O)[C@H]1N2Cc1ccncc1
0	3	-2.9	CC=Cc1ccc2n(c1=O)C[C@H]1[C@H](CO)[C@@H](C(=O)N3CCN(C)CC3)N(Cc3ccccc3F)[C@@H]21 (mixture of isomers)

Some of these compounds in order of length of the SMILES, lowest first:
SMILES | DUX4 inh | DUX4 inh difference | DUX4 inh control
CNC[C@@H]1OCCCC[C@@H](C)Oc2ccc(N)cc2C(=O)N([C@@H](C)CO)C[C@H]1C | -1 | -1 | 0.1
CCN1[C@@H]2c3ccc(-c4ccncc4)c(=O)n3C[C@H]1[C@H](CO)[C@H]2C(=O)Nc1ccccc1 | 2 | 1 | 1.0
C[C@H](NC(=O)[C@@H]1[C@@H](CO)[C@@H]2Cn3c(ccc(C4=CCCC4)c3=O)[C@H]1N2C(=O)C1CC1)c1ccccc1 | 2 | 4 | -1.9

Next structures follow.
SMILES | DUX4 inh | DUX4 inh difference | DUX4 inh control
CO[C@@H]1CN(C)C(=O)c2ccc(NS(=O)(=O)c3ccccc3)cc2OC[C@H](C)N(C(=O)NC(C)C)C[C@H]1C | 3 | 3 | 0.7
CCC(=O)N1[C@@H]2c3cccc(=O)n3C[C@H]1[C@H](CO)[C@H]2C(=O)N1CCc2ccccc2C1 | 1 | 3 | -1.9
COc1ccccc1CN1[C@H](CO)[C@@H](c2ccccc2)C12CN(C(=O)c1ccccn1)C2 | u | x | x
C[C@@H](NC(=O)C[C@@H]1C=C[C@@H](NC(=O)c2cccnc2)[C@H](CO)O1)c1ccccc1 | 4 | 2 | 2.1
CCCNC(=O)N1[C@H](CO)[C@H](c2ccccc2)[C@H]1CNC(=O)C1CCCCC1 | 4 | 1 | 3.0
CC(C)C#Cc1cnc2c(c1)C(=O)N([C@H](C)CO)C[C@@H](C)[C@H](CN(C)C(=O)Nc1ccccc1F)O2 | 1 | -4 | 4.2
CCN1[C@@H]2c3ccc(-c4ccc(OC)cc4)c(=O)n3C[C@@H]2[C@@H](CO)[C@@H]1C(=O)NC1CCC1 | 2 | 1 | 0.5
CNC[C@H]1OCCCC[C@@H](C)Oc2ccc(NC(=O)CCC(F)(F)F)cc2C(=O)N([C@@H](C)CO)C[C@H]1C | 3 | 1 | 1.7
COc1ccc2c3c([nH]c2c1)[C@@H](CO)N(C(=O)CN(C)C)CC31CCN(Cc2cncnc2)CC1 | 22 | -3 | 25
CCC(=O)N1CC2(C1)[C@H](c1ccccc1)[C@@H](CO)N2CC1CC1 | 7 | -1 | 8.2
CNC(=O)C[C@@H]1CC[C@H]2[C@H](COc3ccc(NC(=O)NCc4ccccc4)cc3C(=O)N2C)O1 | 2 | 4 | -2.3
CN1CCN(C(=O)[C@H]2[C@H](CO)[C@H]3Cn4c(ccc(C5=CCCCC5)c4=O)[C@@H]2N3S(C)(=O)=O)CC1 | 1 | -6 | 7.2
C/C=C/c1ccc([C@@H]2[C@@H](CO)N3CCCCN(S(=O)(=O)c4ccc(F)cc4)C[C@@H]23)cc1 | -3 | -7 | 4.1
O=C(C[C@@H]1CC[C@H](NS(=O)(=O)c2ccc(F)cc2)[C@H](CO)O1)NC1CCCCC1 | 8 | 4 | 3.2
CO[C@@H]1CN(C)C(=O)c2cc(NC(=O)Cc3ccccc3)ccc2OC[C@@H](C)N(C(=O)c2ccccc2F)C[C@@H]1C | 11 | 4 | 7.0
Cc1ccccc1S(=O)(=O)N1[C@@H](C#N)[C@H](c2ccc(-c3ccccc3)cc2)[C@@H]1CO | 0 | -1 | 0.8
O=C(C[C@H]1CC[C@H]2[C@@H](COC[C@H](O)CN2C(=O)Nc2cccc(F)c2)O1)NCc1ccccc1F | -3 | -4 | 2.0
COc1ccc2c3c(n(C)c2c1)[C@H](CO)NCC31CN(Cc2ccccc2Cl)C1 | 4 | -14 | 17
CN(C)C(=O)c1ccc(-c2ccc(C3[C@@H]4CN(Cc5ccccc5Cl)C[C@H]3N4)cc2)cc1 (stereo partly drawn) | u | x | x
C[C@H](CO)N1C[C@H](C)[C@H](CN(C)S(=O)(=O)c2ccc(Cl)cc2)OCc2cn(nn2)CCCC1=O | -3 | 0 | -2.4
CN1[C@@H]2Cn3c(ccc(-c4ccccc4)c3=O)[C@H]1[C@@H](C(=O)Nc1nccs1)[C@@H]2CO | -1 | -6 | 5.1
COCC(=O)N1CCCCN2[C@H](C1)[C@H](c1ccc(-c3ccc(F)cc3)cc1)[C@@H]2CO | -3 | -1 | -2.0
C[C@@H]1CCCCO[C@@H](CN(C)C(=O)NC2CCCCC2)[C@@H](C)CN([C@@H](C)CO)C(=O)c2cc(N(C)C)ccc2O1 | 1 | -1 | 2.4
COc1cccc(NC(=O)N[C@H]2C=C[C@@H](CC(=O)N3CCOCC3)O[C@H]2CO)c1 | 8 | 7 | 0.8
COc1ccc2c3c(n(C)c2c1)[C@@H](CO)N(C(=O)C1CC1)CC31CCN(C(=O)CN(C)C)CC1 | 14 | 3 | 11
CCCC#Cc1ccc([C@H]2[C@H](CO)N3C(=O)CN(S(=O)(=O)c4ccccc4C)C[C@@H]23)cc1 | 4 | -6 | 10
C[C@H]1CN([C@@H](C)CO)C(=O)CCCn2cc(nn2)CO[C@@H]1CN(C)C(=O)Nc1cccc2ccccc12 | 2 | 9 | -6.8
COc1ccc(C#Cc2ccc([C@@H]3[C@@H](CO)N4C(=O)CN(C(=O)c5ccc(F)cc5)C[C@@H]34)cc2)cc1 | u | x | x
COCC(=O)N(C)C[C@H]1Oc2cc(C#CCC3CCCC3)ccc2S(=O)(=O)N([C@@H](C)CO)C[C@@H]1C | 0 | 2 | -2.0
COc1ccc(S(=O)(=O)Nc2ccc3c(c2)CC(=O)N([C@H](C)CO)C[C@H](C)[C@@H](CN(C)S(=O)(=O)c2cn(C)cn2)O3)cc1 | -1 | -4 | 3.3
Cc1cccc(S(=O)(=O)N2C[C@@H]3N[C@H](C2)C3c2ccc(-c3cncnc3)cc2)c1 (stereo partly drawn) | -4&5 | -5&5 | 1.3&0.1
O=C(N[C@@H]1CC[C@H](CC(=O)N2CCCCC2)O[C@@H]1CO)c1ccccn1 | 1 | 2 | -1.6
CS(=O)(=O)Nc1ccc2c(c1)[C@H]1C[C@@H](CC(=O)NCc3cccc(F)c3)O[C@H](CO)[C@H]1O2 | 6 | 0 | 5.8
CCCN(C)C[C@H]1Oc2cc(C#CC3CCCCC3)ccc2S(=O)(=O)N([C@@H](C)CO)C[C@H]1C | -1 | -2 | 1.9
O=C(NCc1ccccc1F)[C@@H]1[C@@H](CO)[C@@H]2Cn3c(cccc3=O)[C@@H]2N1CC1CC1 | 10 | 18 | -7.9
NCC[C@@H]1CC[C@@H](NC(=O)NC2CCCCC2)[C@@H](CO)O1 | -2 | 1 | -3.0
CN1C[C@@H](O)COC[C@@H]2O[C@H](CC(=O)N3CCN(c4ccccc4)CC3)CC[C@H]21 | 12 | 11 | 1.2
O=C(c1ccccc1F)N1C[C@H]2[C@@H](c3ccccc31)[C@@H](CO)N2C(=O)c1ccc(F)cc1 | 4 | 2 | 2.1
COc1ccccc1-c1ccc([C@H]2[C@@H](CO)N(C(C)=O)[C@H]2CN(C)C(C)=O)cc1 | 1 | 4 | -2.8
O=C(c1ccc(F)cc1)N1CC[C@@H]2[C@@H](CO)Nc3ccc(C#Cc4ccc(F)cc4)cc3[C@@H]21 | -52* | -31* | -21*
COc1cccc(S(=O)(=O)N2CCCCN3[C@H](C2)[C@@H](c2ccc(C4=CCCCC4)cc2)[C@@H]3CO)c1 | -5 | 8 | -12
CN1c2ccc(-c3cccc(C#N)c3)cc2[C@@H]2[C@@H](CCN2C(=O)CN2CCOCC2)[C@H]1CO | 0 | -2 | 2.3
COCC(=O)N(C)C[C@H]1Oc2cc(C#CCC3CCCC3)ccc2S(=O)(=O)N([C@@H](C)CO)C[C@H]1C | -3 | -1 | -2.0
O=C1CN(Cc2ccccc2)C[C@H]2[C@@H](c3ccc(-c4cccnc4)cc3)[C@H](CO)N12 | 19 | 5 | 13
C[C@H](CO)N1C[C@H](C)[C@H](CN(C)CC2CC2)OCc2ccccc2-c2ccccc2C1=O | -3 | -14 | 11
COc1ccc(C(=O)N2C[C@H]3[C@@H](c4ccccc42)[C@@H](CO)N3C(=O)NC(C)C)cc1 | 4 | 1 | 2.3
CC(C)NC(=O)N[C@@H]1CC[C@H](CC(=O)NCCCN(C)C)O[C@H]1CO | 0 | -2 | 2.2
CCS(=O)(=O)Nc1ccc2c(c1)C(=O)N(C)C[C@@H](OC)[C@H](C)CN(C(=O)c1ccc3c(c1)OCO3)[C@H](C)CO2 | -5 | -8 | 2.9
CO[C@@H]1CN(C)C(=O)c2ccc(NC(=O)c3ccc(F)cc3)cc2OC[C@@H](C)N(C(=O)CN(C)C)C[C@@H]1C | -4 | -5 | 1.9
CO[C@H](CN(C)C(=O)Nc1ccc(F)cc1)[C@@H](C)CN(Cc1ccccc1Cl)[C@@H](C)CO | -6 | -5 | -0.7
O=C(C[C@H]1C[C@@H]2c3cc(NC(=O)CC4CC4)ccc3O[C@@H]2[C@@H](CO)O1)NCc1ccncc1 | -4 | -4 | 0.2

Bioassay records deposited in PubChem BioAssay by Broad Institute.
